Source: PubChem (several laboratories)
PABP polyA inh: PABP poly(A) RNA binding inhibitors, primary screen, biochemical, fluorescence polarization, uHTS | inhibition, % at 35 µM | Polyadenylate-binding protein 1 (Homo sapiens), P11940 | hit rate 1% among 290,000 | AID 2014, 2009;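 active = 50% or more with normal probe brightness, or confirmed in later tests; about a fifth of its hits are not listed in these tables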;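 note: calls also rest on retests at 20 µM and on dose response follow-up; controls were probe without protein and protein plus probe with vehicle; some compounds called inactive have numbers as strong as hits; many hits fall short of the cut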
Rce1 inhib: yeast Rce1p protease inhibitors, primary screen, biochemical, fluorescence, cell-free homogeneous; hit rate 0.27% among 290,000; yeast membranes, quenched prenylated peptide cleavage fluorescence; calls only; CAAX prenyl protease 2 (Saccharomyces cerevisiae (strain ATCC 204508 / S288c)), Q03530; AID 2563, 2010;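 active = fall in fluorescence gain of 50% or more versus controls, with final raw signal at or below 3038400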;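 note: plate controls were neutral control wells for no effect and wells lacking membranes for full effect; tested at 10 µM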
Target sequence (Q03530 whole entry, looked up): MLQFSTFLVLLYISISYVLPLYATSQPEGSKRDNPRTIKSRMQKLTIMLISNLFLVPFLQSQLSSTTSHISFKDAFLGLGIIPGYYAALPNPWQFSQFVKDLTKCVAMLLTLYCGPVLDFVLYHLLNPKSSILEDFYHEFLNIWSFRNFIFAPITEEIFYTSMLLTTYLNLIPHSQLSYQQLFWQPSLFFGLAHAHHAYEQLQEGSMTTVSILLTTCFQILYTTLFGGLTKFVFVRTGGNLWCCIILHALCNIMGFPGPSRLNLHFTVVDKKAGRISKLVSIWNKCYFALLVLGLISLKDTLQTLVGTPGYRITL
Env fusion inh: inhibitors of HIV-1 Env-driven cell-cell fusion, primary screen, HeLa-JRFL effector, CEM21 target cells, luciferase; inhibition, % at 12.3 µM; hit rate 1.1% among 360,000;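 active = mean replicate inhibition score of at least 50 and every replicate individually at or above 50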;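 note: 0% = plate neutral controls and 100% = maraviroc near 300 nM; one replicate is shown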
CSC inhib: cancer stem cell viability inhibitors, primary screen, luminescence | hit rate 1.1% among 300,000 | AID 2717, 2010 | inhibition, % at 7.5 µM | cancer stem cell-like cells viability;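 active = mean at 75% or more and at least half the replicates too; tested in HMLE shEcad cells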;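 note: 0% = median of negative and 100% = median of positive control wells; the first replicate is given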
Yeast UUG start: modulators of yeast start codon fidelity, primary screen, whole organism, S. cerevisiae, single point, plate reader. S. cerevisiae UUG-firefly luciferase reporter, luminescence/redox ratio. activity score, % at 18.7 µM. AID 602363, 2012. hit rate 0.13% among 350,000;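 active = replicate mean at a twofold rise or more, about +100% in these data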;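 note: firefly luciferase made from a UUG start codon reports start codon fidelity; reporter light over untreated wells divided by growth signal over untreated wells; some hits fall short of that in this replicate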
MT1-MMP act inh: blockers of MT1-MMP proenzyme processing, primary screen, HT1080 RFP-PRO-GFP cells, GFP/RFP fluorescence; Matrix metalloproteinase-14 (Homo sapiens), P50281; GFP/RFP ratio fluorescence, overnight; percent of plate control window, DMSO zero; GFP/RFP ratio change, % at 20 µM; hit rate 0.061% among 360,000;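 active = GFP/RFP ratio change of at least 30% with cell ATP level not reduced by more than half and red fluorescence within 50% of control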; note: strong numbers were not always called active
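Test system: HT1080 cells expressing an RFP-PRO-GFP fluorescent reporter construct / Compound dosing: single-point 20 µM compound, 1% DMSO / Schedule: cells overnight before dosing, compound overnight, 37 °C, 5% CO2 / Evaluation: GFP/RFP fluorescence ratio / Control set: DMSO and RFP-L50D-GFP cell wells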
eIF4H inh: human eIF4H binding inhibitors, primary screen, translation initiation inhibitor project, biochemical, uHTS, fluorescence polarization; Eukaryotic translation initiation factor 4H (Homo sapiens), Q15056; eIF4H fluorescence polarization binding assay; inhibition, % at 35 µM; hit rate 0.94% among 290,000;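 active = 50% or more with normal probe brightness, or confirmed in later tests; about a fifth of its hits are not listed in these tables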;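 note: calls also rest on retests at 20 µM and on dose response follow-up; 0% = protein and probe with vehicle and 100% = probe without protein; strong numbers were not always called active; many hits fall short of the cut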
MT1-MMP act inh RFP: further read-out of MT1-MMP act inh, marked with its call; RFP signal change, %; measured here: RFP expression control read;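 0 = vehicle wells; hits needed this value within 50% of zero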
An asterisk follows results filed as active; & = joins results of further samples; ! = repeats disagree; [ ] = another dose, or the depositor's remark. Not all compounds are listed; the hit share may differ from the screen's.

Results for COCCCN(CC(=O)O)S(=O)(=O)c1ccccc1 ?
PABP polyA inh: 2.5; Rce1 inhib: inactive; Env fusion inh: 9.4; CSC inhib: -8.9; Yeast UUG start: -8.7; MT1-MMP act inh: 0.7; eIF4H inh: 3.3; MT1-MMP act inh RFP: 3.0

How did COc1ccccc1N1CCN(Cc2cn[nH]c2-c2ccc(F)cc2)CC1 do in these assays?
PABP polyA inh: -3.0; Rce1 inhib: inactive; Env fusion inh: 17.8; CSC inhib: -5.8; Yeast UUG start: -1.8; MT1-MMP act inh: -0.7; eIF4H inh: -8.3; MT1-MMP act inh RFP: 1.2

How did O=C(Cn1ccc(=O)[nH]c1=O)Nc1nccs1 do in these assays?
Env fusion inh: 3.2; Yeast UUG start: -26.4; MT1-MMP act inh: -0.9; MT1-MMP act inh RFP: 5.1

What do the screens show for `CC(=O)C(C)Oc1ccc2c3c(c(=O)oc2c1)CCCCC3` (stereo not given)?
PABP polyA inh: -5.9; Rce1 inhib: inactive; Env fusion inh: -420.3; CSC inhib: 6.8; Yeast UUG start: -5.7; MT1-MMP act inh: 1.2; eIF4H inh: -5.0; MT1-MMP act inh RFP: 0.2

What do the screens show for `COC(=O)C1=C(N)Oc2cc(C)n(CCN3CCOCC3)c(=O)c2C1c1cccnc1` (stereo not given)?
PABP polyA inh: 6.1; Rce1 inhib: inactive; Env fusion inh: -101.2; CSC inhib: -8.5; Yeast UUG start: -17.5; MT1-MMP act inh: -1.8; eIF4H inh: 4.1; MT1-MMP act inh RFP: 5.2

Results for COc1cccc(C(O)C2OC(=O)c3ccccc32)c1OC (stereo not given) ?
Rce1 inhib: inactive; Env fusion inh: -1.2; CSC inhib: -2.5; Yeast UUG start: -11.4; MT1-MMP act inh: -2.0; MT1-MMP act inh RFP: -2.9

Results for C[C@H](CO)N1C[C@H](C)[C@@H](CN(C)Cc2ccc(Cl)c(Cl)c2)Oc2c(NS(=O)(=O)c3cccs3)cccc2C1=O ?
Env fusion inh: 62.2*!; CSC inhib: -15.9; Yeast UUG start: 0.1&55.6; MT1-MMP act inh: 6.6; MT1-MMP act inh RFP: 0.7

How did O=C(NCc1ccccc1)c1cc(=O)c2ccccc2o1 do in these assays?
PABP polyA inh: -1.3; Rce1 inhib: inactive; Env fusion inh: 11.9; CSC inhib: -12.8; MT1-MMP act inh: -0.1; eIF4H inh: -10.7; MT1-MMP act inh RFP: -1.0

Results for COc1ccc(-n2c(CNC(=O)COc3ccc(Cl)cc3Cl)n[nH]c2=S)cc1 ?
PABP polyA inh: -15.2; Env fusion inh: 12.7; CSC inhib: 11.7; eIF4H inh: -4.7

What do the screens show for `CCCCC(=O)NC(c1cccs1)c1cc(Cl)c2cccnc2c1O` (stereo not given)?
PABP polyA inh: 2.7; Rce1 inhib: inactive; Env fusion inh: 0.3; CSC inhib: 120.0*; MT1-MMP act inh: -23.4; eIF4H inh: 15.6; MT1-MMP act inh RFP: -10.6

Results for Cc1cccc(NC(=O)CCSc2nncn2C)c1 ?
PABP polyA inh: 0.9; Rce1 inhib: inactive; Env fusion inh: -62.8; CSC inhib: -16.2; Yeast UUG start: -26.6; MT1-MMP act inh: 4.2; eIF4H inh: -4.5; MT1-MMP act inh RFP: 1.7

How did C#CCOCCOCCOCCNc1nc(N2CCN(C(=O)[C@H](CCC(=O)O)n3cc(CN)nn3)CC2)nc(N2CCN(C(=O)[C@H](CCC(=O)O)n3cc([C@@H](N)[C@H](C)CC)nn3)CC2)n1 do in these assays?
Env fusion inh: 44.4; CSC inhib: -9.9; Yeast UUG start: 27.2; MT1-MMP act inh: 0.5; MT1-MMP act inh RFP: 3.4

How did CC1CCCN(C(=O)C2CCN(Cc3ccc4c(c3)OCO4)CC2)C1 (stereo not given) do in these assays?
PABP polyA inh: -6.7; Rce1 inhib: inactive; Env fusion inh: 5.2; CSC inhib: 6.1; Yeast UUG start: -3.2; MT1-MMP act inh: 2.6; eIF4H inh: 1.9; MT1-MMP act inh RFP: 4.5

How did CC1(C)CC(NCc2ccc3c(c2)OCO3)CCO1 (stereo not given) do in these assays?
PABP polyA inh: 1.1; Rce1 inhib: inactive; Env fusion inh: -30.8; Yeast UUG start: -8.6; MT1-MMP act inh: 0.9; eIF4H inh: 0.2; MT1-MMP act inh RFP: 1.8

Results for C=CCn1c(C)c(C(C)=O)c(SC)nc1=S ?
PABP polyA inh: 18.6; Env fusion inh: 12.4; CSC inhib: -3.1; Yeast UUG start: -18.0; MT1-MMP act inh: -1.9; eIF4H inh: -3.4; MT1-MMP act inh RFP: 3.2

How did COc1ccc(OCC(=O)O/N=C(\N)c2ccc(OC)c(OC)c2)cc1 do in these assays?
PABP polyA inh: -8.2; Rce1 inhib: inactive; CSC inhib: -2.6; Yeast UUG start: -18.1; MT1-MMP act inh: 5.9; eIF4H inh: 3.0; MT1-MMP act inh RFP: 4.9

How did CN(C)C(CNC(=O)c1ccc(S(=O)(=O)Nc2ccccc2F)cc1)c1ccccc1 (stereo not given) do in these assays?
PABP polyA inh: -0.6; Rce1 inhib: inactive; Env fusion inh: 11.3; CSC inhib: 2.0; Yeast UUG start: -10.0; MT1-MMP act inh: 10.5; eIF4H inh: -4.2; MT1-MMP act inh RFP: -0.5

How did COC(=O)c1cccc(-c2ccc(/C=N/N3C(=O)C4C5C=CC(C6CC56)C4C3=O)o2)c1 (stereo not given) do in these assays?
PABP polyA inh: -19.6; Rce1 inhib: inactive; Env fusion inh: 6.3; CSC inhib: 1.9; MT1-MMP act inh: 2.9; eIF4H inh: -3.3; MT1-MMP act inh RFP: 7.1

Results for CC1(C)CC(=O)C(C2=NC(C)(C)Cc3ccccc32)=C(O)C1 ?
PABP polyA inh: 0.8; Rce1 inhib: inactive; Env fusion inh: -114.8; CSC inhib: -8.0; Yeast UUG start: -15.5; MT1-MMP act inh: -2.0; eIF4H inh: -5.8; MT1-MMP act inh RFP: 1.3

What do the screens show for `COc1cc2nc(COc3ccc(C#N)cc3)n(CC#N)c(=O)c2cc1OC`?
PABP polyA inh: -5.9; Rce1 inhib: inactive; Yeast UUG start: -1.7; MT1-MMP act inh: 0.2; eIF4H inh: -5.3; MT1-MMP act inh RFP: -1.2

What do the screens show for `CN(C)c1cccc(C(=O)NC2CCCCCC2)c1`?
PABP polyA inh: 7.4; Rce1 inhib: inactive; Env fusion inh: -82.7; CSC inhib: -0.1; Yeast UUG start: -9.3; MT1-MMP act inh: 1.0; eIF4H inh: -0.6; MT1-MMP act inh RFP: 1.7

Results for CC(=O)c1ccc(N=C2SCCCN2C(=O)C2CCCC2)cc1 ?
PABP polyA inh: 6.0; Rce1 inhib: inactive; Env fusion inh: 3.5; CSC inhib: -5.9; MT1-MMP act inh: 0.3; eIF4H inh: 4.2; MT1-MMP act inh RFP: 1.4

Results for NC(=O)COc1c(-c2ccccc2)oc2ccccc2c1=O ?
PABP polyA inh: -11.1; Rce1 inhib: inactive; CSC inhib: 6.1; Yeast UUG start: -4.3; MT1-MMP act inh: 0.9; eIF4H inh: -11.8; MT1-MMP act inh RFP: 0.0

What do the screens show for `Cc1cc(NC(=O)CCC(=O)N(c2ccc(F)cc2)C2(C(=O)NC3CCCCC3)CCCC2)no1`?
PABP polyA inh: -2.2; Rce1 inhib: inactive; Env fusion inh: 37.0; CSC inhib: 2.4; Yeast UUG start: -4.7; MT1-MMP act inh: -5.9; eIF4H inh: 4.3; MT1-MMP act inh RFP: -1.2

How did C/C(=N/N=C1/NC(=O)CC(C(=O)O)S1)c1ccccc1 (stereo not given) do in these assays?
PABP polyA inh: 4.8; Rce1 inhib: inactive; Env fusion inh: 0.9; CSC inhib: -7.3; eIF4H inh: -8.7

Results for CC(C)OC(=O)c1c2nc3ccccc3nc2n2c1[nH]c(=O)c1ccccc12 ?
PABP polyA inh: 67.8*; Rce1 inhib: inactive; CSC inhib: -21.2; eIF4H inh: 52.6*

How did O=C(C1=C[C@H](C2CCCCC2)C[C@H](OCc2ccc(CO)cc2)O1)N1CCN(Cc2ccc3c(c2)OCO3)CC1 do in these assays?
PABP polyA inh: -8.3; Rce1 inhib: inactive; Env fusion inh: 25.2[16.7 µM]; CSC inhib: 43.1; Yeast UUG start: 1.4&-4.2; MT1-MMP act inh: 1.9; eIF4H inh: -3.7; MT1-MMP act inh RFP: -8.9

What do the screens show for `COc1ccccc1NC(=O)c1cnc(Nc2ccccc2OC)c2ccccc12`?
PABP polyA inh: -4.1; Rce1 inhib: inactive; Env fusion inh: 21.7; CSC inhib: 66.4; Yeast UUG start: -18.3; MT1-MMP act inh: 5.3; eIF4H inh: -4.9; MT1-MMP act inh RFP: -7.4

What do the screens show for `O=C(O)CCC(=O)NNC(=O)CCC1CCCCC1`?
PABP polyA inh: 1.9; Rce1 inhib: inactive; Env fusion inh: -14.6; CSC inhib: -13.1; MT1-MMP act inh: 3.5; eIF4H inh: 2.5; MT1-MMP act inh RFP: 4.3

How did CC1CCCN(S(=O)(=O)c2ccc(C(=O)Nc3nnc(-c4ccccc4Cl)o3)cc2)C1 (stereo not given) do in these assays?
PABP polyA inh: 0.9; Rce1 inhib: inactive; CSC inhib: 21.6; Yeast UUG start: -18.6; MT1-MMP act inh: -0.4; eIF4H inh: 12.5; MT1-MMP act inh RFP: -7.1

The closing two compounds of the part above open the next one:
What do the screens show for `O=C(O)CCC(=O)NNC(=O)CCC1CCCCC1`?
PABP polyA inh: 1.9; Rce1 inhib: inactive; Env fusion inh: -14.6; CSC inhib: -13.1; MT1-MMP act inh: 3.5; eIF4H inh: 2.5; MT1-MMP act inh RFP: 4.3

How did CC1CCCN(S(=O)(=O)c2ccc(C(=O)Nc3nnc(-c4ccccc4Cl)o3)cc2)C1 (stereo not given) do in these assays?
PABP polyA inh: 0.9; Rce1 inhib: inactive; CSC inhib: 21.6; Yeast UUG start: -18.6; MT1-MMP act inh: -0.4; eIF4H inh: 12.5; MT1-MMP act inh RFP: -7.1

Results for O=C(NN1C(=O)C2C3C=CC(C4CC34)C2C1=O)c1ccc(Cl)c(Cl)c1 (stereo not given) ?
PABP polyA inh: 2.1; Rce1 inhib: inactive; Env fusion inh: 8.6; CSC inhib: -11.5; Yeast UUG start: -16.9; MT1-MMP act inh: 7.3; eIF4H inh: -5.8; MT1-MMP act inh RFP: 4.1

How did COc1ccc(NC(=O)C(C)N2c3cccc4cccc(c34)S2(=O)=O)cc1OC (stereo not given) do in these assays?
PABP polyA inh: 0.8; Rce1 inhib: inactive; CSC inhib: 7.7; Yeast UUG start: -11.4; MT1-MMP act inh: 1.8; eIF4H inh: -1.9; MT1-MMP act inh RFP: -19.3

Results for CC1=C(C#N)C(c2ccc(O)cc2)C2=C(CCCC2=O)N1 (stereo not given) ?
PABP polyA inh: -11.9; Rce1 inhib: inactive; Env fusion inh: 13.0; CSC inhib: -10.1; Yeast UUG start: -14.0; MT1-MMP act inh: 0.5; eIF4H inh: -0.2; MT1-MMP act inh RFP: 4.1

How did O=C(COc1ccc2ccc(=O)oc2c1)NC1CCCC1 do in these assays?
PABP polyA inh: 1.0; Rce1 inhib: inactive; CSC inhib: -13.6; Yeast UUG start: -0.3; MT1-MMP act inh: -1.5; eIF4H inh: -10.2; MT1-MMP act inh RFP: -0.9
